Beta cell apopt: inhibitors of cytokine-induced beta cell apoptosis, primary screen, luminescence; INS-1E cytokine-induced death, ATP luminescence, 48 h; percent of positive-control rescue, neutral wells zero; protection from apoptosis, % (test concentration not listed); 0.8% of 300,000 active; AID 435005, 2010;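 active = all replicates at 75% or more, or half of them and the mean; inconclusive = half reach 75% but not the mean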;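 also: 0% = cytokine-treated negative control wells and 100% = positive control rescue; higher means more ATP so stronger rescue from cytokine killing; wells of about 40 µL received 100 nL stock; the first replicate is given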
T cruzi inh: inhibitors of intracellular T. cruzi growth, primary screen, luminescence, NIH3T3 host cells; T. cruzi beta-gal in NIH3T3, 90 h; 1.4% of 300,000 active; inhibition, % (test concentration not listed);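 active = mean inhibition across valid replicates above about 55%, limit read from the data; inconclusive = mean below that limit but half or more replicates reach it; inactive = mean below it, under half of replicates reach it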;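 also: signal also drops with host cell toxicity which is not excluded here; 0% = plate median of DMSO wells and 100% = zero luminescence signal; higher percent means less beta-gal luminescence so fewer parasites; stock transfer was 50 nL into about 50 µL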
MLL AF4-AF9 inh: inhibitors of AF4 peptide binding to AF9, primary screen, biochemical, AlphaScreen, biotin-AF4 peptide, FLAG-AF9, single point | Protein AF-9 (Homo sapiens), P42568 | inhibition, % at 10 µM | 0.47% of 350,000 active;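 active = every replicate reaching a set inhibition limit, whatever the replicate mean, cut at about 25% in these data; inconclusive = mean inhibition reaches that limit but some replicates miss it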;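 also: 0% = plate neutral control median and 100% = total signal loss; the record names both 10 and 1 µM as test concentration; the first replicate is given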
Target sequence (P42568 whole entry, looked up): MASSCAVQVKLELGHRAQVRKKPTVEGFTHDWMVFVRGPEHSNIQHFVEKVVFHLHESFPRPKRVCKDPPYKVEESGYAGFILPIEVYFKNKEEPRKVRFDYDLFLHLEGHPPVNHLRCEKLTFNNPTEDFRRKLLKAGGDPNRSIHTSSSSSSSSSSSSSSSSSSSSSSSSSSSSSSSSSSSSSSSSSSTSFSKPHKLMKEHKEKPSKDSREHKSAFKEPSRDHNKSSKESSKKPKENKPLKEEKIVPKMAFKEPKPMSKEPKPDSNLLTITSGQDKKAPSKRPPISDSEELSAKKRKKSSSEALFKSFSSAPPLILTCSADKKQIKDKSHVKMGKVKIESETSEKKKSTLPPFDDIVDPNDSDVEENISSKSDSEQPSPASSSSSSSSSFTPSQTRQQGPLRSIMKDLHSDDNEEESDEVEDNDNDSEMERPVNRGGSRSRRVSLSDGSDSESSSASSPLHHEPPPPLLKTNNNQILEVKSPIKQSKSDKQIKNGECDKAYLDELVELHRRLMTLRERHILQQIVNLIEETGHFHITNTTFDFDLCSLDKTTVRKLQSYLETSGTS
rRNA inh HTS: reduced GFP signal of wild-type E. coli, primary screen, bacterial rRNA inhibitor project, GFP/RFP fluorescence, OD600, single point | E. coli WT GFP vs humanized-ribosome RFP mutants, 24 h; stronger effect = lower value; DMSO median 0, no signal -100 | GFP signal change (wild-type ribosome), % (test concentration not listed) | 1.6% of 350,000 active;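 active = significant combined selectivity score with lowered wild-type GFP, culture density cut under 30%, mutant RFP and density less affected; inactive = any of these conditions unmet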; also: one replicate is shown; some compounds called inactive have numbers as strong as hits
FGF22 binding: binders of human FGF22 protein, primary screen, FGF22 synaptogenesis inhibitor project, biophysical, thermal shift, single point; calls only at 9.99 µM; Fibroblast growth factor 22 (Homo sapiens), Q9HCT0; recombinant FGF22 thermal shift, SYPRO orange fluorescence; percent of sucrose octasulfate shift, DMSO zero; AID 651658, 2012; 1.5% of 340,000 active;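 active = melting point raised past a set limit in the mean and every replicate; inconclusive = no clear call; three in four hits are not shown here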
Target sequence (Q9HCT0 whole entry, looked up): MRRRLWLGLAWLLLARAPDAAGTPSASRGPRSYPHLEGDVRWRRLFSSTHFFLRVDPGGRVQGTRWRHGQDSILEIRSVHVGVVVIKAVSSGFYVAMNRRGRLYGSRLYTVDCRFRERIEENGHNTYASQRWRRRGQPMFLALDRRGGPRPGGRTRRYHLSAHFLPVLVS
Calb FLC: C. albicans growth inhibition with fluconazole, primary screen, CaCi-2 strain, Alamar Blue fluorescence. C. albicans CaCi-2 (fluconazole-resistant clinical isolate) + fluconazole, 48 h. growth inhibition, % (concentration not given with the values). 0.57% of 300,000 active;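 active = most replicates above 75%; inconclusive = exactly half above 75%; inactive = most below 75%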;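 also: all wells also contain fluconazole at 8 µg/ml as a sub-toxic cotreatment; 0% = median of DMSO wells and 100% = median of geldanamycin control wells; wells of about 8 µL received 7.5 nL stock; the first replicate is given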
RanGTP-Imp inh: inhibitors of RanGTP-importin-beta interaction, primary screen, biochemical, FRET, CFP-Ran, YFP-importin-beta, homogeneous; cell-free CFP-Ran/YFP-importin-beta FRET ratio; inhibition, % (test concentration not listed); 1.1% of 300,000 active;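 active = most replicates above 15%; inconclusive = exactly half above 15%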;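 also: 0% = DMSO wells and 100% = Ran loaded with GDP instead of GTP; wells of about 40 µL received 100 nL stock; the first replicate is given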
ALR H2O2 inh: inhibitors of human ALR sulfhydryl oxidase, primary screen, biochemical, H2O2 detection, HRP-luminol luminescence, single point; inhibition, % (concentration not given with the values); FAD-linked sulfhydryl oxidase ALR (Homo sapiens), P55789; 3.8% of 290,000 active; purified ALR, DTT oxidation;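 active = mean and each replicate at 75% or more; inconclusive = only one of the two met; inactive = neither met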;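 also: stock transfer was 7.5 nL into about 7.5 µL; 0% = neutral wells and 100% = wells with inactivated enzyme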
Target sequence (P55789 whole entry, looked up): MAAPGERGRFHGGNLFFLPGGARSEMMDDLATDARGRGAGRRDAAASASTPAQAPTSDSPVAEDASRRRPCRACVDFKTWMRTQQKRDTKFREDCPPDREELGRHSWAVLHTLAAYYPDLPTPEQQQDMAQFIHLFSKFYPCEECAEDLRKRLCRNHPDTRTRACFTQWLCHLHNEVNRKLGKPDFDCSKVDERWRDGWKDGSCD
rRNA inh HTS OD600: further read-out of rRNA inh HTS, marked with its call; OD600 change, %; measured here: OD600 growth;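 optical density of the mix in the first replicate; 0 = DMSO median and -100 = no signal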
rRNA inh HTS RFP: further read-out of rRNA inh HTS, marked with its call; RFP signal change, %; measured here: RFP humanized mutant strains;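 first replicate; 0 = DMSO median and -100 = no signal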
* marks the source's active call; other numbers are inactive results; i = inactive; ? = inconclusive; / = not tested or not shown. These rows are one share of the data (hit frequency here may not be typical).

SMILES | Beta cell apopt | T cruzi inh | MLL AF4-AF9 inh | rRNA inh HTS | rRNA inh HTS OD600 | rRNA inh HTS RFP | FGF22 binding | Calb FLC | RanGTP-Imp inh | ALR H2O2 inh
CCOC(=O)C1CCN(CC(O)COc2ccc(C(C)=O)cc2)CC1 (stereo not given) | / | -8.9 | / | / | / | / | / | 1.6 | -2.2 | -13.1
Cc1ccccc1-n1c(=O)cc(N2CCN(C(=O)c3ccco3)CC2)[nH]c1=O | -6.9 | -1.1 | -19.0 | 12.6 | 15.2 | -4.4 | i | -9.0 | 1.4 | -29.3
Cc1ccccc1CN1CCCC(C(=O)Nc2ccccc2Oc2cccnc2)C1 (stereo not given) | -5.1 | 27.5 | 4.9 | 1.6 | 3.2 | 0.1 | i | 3.4 | 0.6 | -0.5
CC(OC(=O)C1CCN(S(=O)(=O)c2ccccc2C(F)(F)F)CC1)C(=O)N(C)Cc1ccccc1 (stereo not given) | -3.4 | 20.3 | -0.6 | -0.3 | -0.8 | 3.6 | i | 4.1 | 1.2 | 1.7
CC(C)(CN=C1NS(=O)(=O)c2ccccc21)CNC(=O)CN1C(=O)c2ccccc2C1=O | -5.8 | -1.3 | / | / | / | / | / | -8.7 | -0.4 | 1.9
COc1ccc(CCN2C(=O)CSC2=Nc2ccc(C)cc2C)cc1OC | 4.6 | 1.6 | -1.4 | / | / | / | i | -7.7 | 3.4 | -0.1
CC(=O)Nc1cccc(NC(=O)CSc2nnc3ccccn23)c1 | -3.1 | / | -6.0 | 14.2 | 21.2 | 0.5 | i | / | / | /
C=CCSc1n[nH]c(-c2ccccc2)n1 | -0.6 | -16.1 | / | / | / | / | / | -1.8 | -0.4 | 17.5
Cc1ccc(-n2nc(CN3CCOCC3)c(-c3ccccc3)c2N)cc1Cl | 1.1 | 5.9 | / | / | / | / | / | -1.3 | -0.9 | 12.7
CC(CCc1ccccc1)NC(=O)CN(C)Cc1ccccc1F (stereo not given) | 0.0 | 17.3 | -3.0 | -29.2* | -2.6* | -1.8* | i | -4.8 | 2.4 | 12.2
O=[N+]([O-])c1ccc(/C=C/c2ccncc2)cc1 | 2.8 | 65.5* | ? | 7.1 | 14.1 | -0.9 | i | 6.5 | ? | -22.4
Cc1cccc(-c2noc(CN(C(=O)/C=C/c3ccccc3Cl)C(C)C)n2)c1 | -2.6 | 4.4 | 3.0 | 5.1 | -1.6 | 4.3 | i | 6.1 | 4.0 | /
Cc1c(NC(=S)N2CCN(c3ccc(F)cc3)CC2)c(=O)n(-c2ccccc2)n1C | 0.2 | -13.5 | -1.1 | -1.7 | -3.0 | -3.7 | i | 5.0 | -0.8 | 74.9
CC(=O)c1sc2nc(C)c3c(c2c1N)CCCC3 | -8.3 | 2.9 | -4.4 | -33.2* | -17.5* | -9.8* | i | 4.2 | 31.5* | 2.5
Cc1cccc(-c2nc3sc(C)cc3c(=O)o2)c1 | 2.9 | -6.0 | -0.2 | -7.4 | -2.0 | 0.6 | i | 19.9 | -2.4 | 97.3*
COc1cccc(C(=O)COc2ccc3c(C)c(Cc4ccccc4)c(=O)oc3c2C)c1 | 0.5 | -17.2 | / | / | / | / | / | 40.1 | 2.0 | -0.9
CCOc1ccc(NC(=O)N2CCCC2C(=O)NCc2ccco2)cc1 (stereo not given) | -0.2 | -0.2 | 0.4 | 3.3 | 9.5 | -0.6 | i | -13.0 | ? | -1.0
CCN1CCN(Cc2ccc(NC(=O)c3ccc(C)c(/C=C/c4cnc(Nc5cc(N6CCNCC6)nc(C)n5)cn4)c3)cc2C(F)(F)F)CC1 | 5.3 | 38.2 | / | / | / | / | / | -4.4 | 31.0* | -6.0
Cc1nn(CC(=O)OCC(=O)Nc2c(C(C)C)cccc2C(C)C)c(C)c1[N+](=O)[O-] | -8.1 | -1.4 | 7.2 | 6.8 | 3.7 | -4.5 | i | -0.7 | 3.8 | -8.9
Cc1ccc(NC(=O)c2cc(F)c(F)cc2Cl)nc1 | -1.3 | -5.8 | 0.4 | 11.1 | 16.2 | -7.3 | / | -1.1 | 3.7 | -13.8
CCN1C(=O)N(C)[C@@H](c2ccccc2)C(C(=O)OC)=C1C | -4.5 | -12.9 | 0.8 | 7.4 | 8.3 | -3.6 | i | -3.1 | 3.4 | 0.9
Cc1cccc(C=Nc2ccc3c4c(cccc24)CC3)c1O | / | -9.0 | / | / | / | / | / | -8.7 | -123.1 | -16.0
COc1ccc(Cn2c(SCc3cc(C)ccc3C)nc3cc(OC)c(OC)cc3c2=N)cc1 | 104.6* | 59.3* | / | / | / | / | / | -7.3 | 0.5 | 8.4
CN(C)CCCNC(=O)c1cc(C(=O)C2CCCCC2)c[nH]1 | 3.3 | 25.2 | 0.0 | 8.9 | 10.5 | 0.6 | i | 1.0 | 1.8 | 63.0
O=C(Nc1ccc(Cl)cc1)c1csc(-c2ccncc2)n1 | -3.7 | 12.5 | -3.7 | 3.4 | 6.4 | 4.0 | i | -8.8 | ? | 0.1
Next section.
SMILES | Beta cell apopt | T cruzi inh | MLL AF4-AF9 inh | rRNA inh HTS | rRNA inh HTS OD600 | rRNA inh HTS RFP | FGF22 binding | Calb FLC | RanGTP-Imp inh | ALR H2O2 inh
CC(NS(=O)(=O)c1ccc2c(c1)oc(=O)n2C)c1ccccc1 (stereo not given) | -2.4 | -5.3 | -1.9 | 6.2 | -6.9 | -2.7 | i | -6.5 | -1.2 | /
CCNc1nc(NCC)nc(N/N=C/c2cc(OC)c(OC)c(OC)c2)n1 | 5.8 | -13.4 | / | -0.1 | 5.6 | -1.1 | i | -7.3 | -0.7 | 7.5
Cc1cc(CNC(=O)COC(=O)c2ccc(Cl)c(N)c2)cc(C)c1O | 0.4 | 3.7 | -1.8 | -2.5 | 2.9 | 8.2 | i | -4.7 | -0.8 | 13.6
CCC(=O)NCCc1nc2cc(NC(=O)COc3ccccc3)ccc2n1C | 0.6 | -9.3 | 1.4 | -2.6 | 0.4 | 1.5 | i | 7.0 | 5.8 | -2.2
CCN(CC)C(=O)Oc1c(Cl)cc(Cl)c2cccnc12 | -9.3 | 8.0 | -3.5 | -11.6 | -10.9 | 0.8 | i | 11.5 | 0.6 | /
CCOc1ccc(CNC(=O)CCCOc2cc(=O)n(C)c3ccccc23)cc1 | -2.8 | 2.2 | / | / | / | / | / | 1.4 | 0.3 | -1.6
CCN(CC)CCOc1ccc2c(c1)C(=NO)c1cc(OCCN(CC)CC)ccc1-2 | ? | 48.9 | / | / | / | / | / | 3.9 | 2.2 | -2.0
CCN1C=C(Cc2cccs2)C2=C(C1)C(c1cccs1)C(C#N)=C(N)O2 (stereo not given) | 6.4 | 43.8 | / | / | / | / | / | -2.4 | -3.7 | /
S=c1sc(SCCOc2ccccc2)nn1-c1ccccc1 | -3.5 | 19.2 | 5.3 | 0.6 | -3.4 | -4.2 | i | 6.2 | -1.5 | /
O=C(O)C1OC2OC3(CCCCC3)OC2C2OC3(CCCCC3)OC12 (stereo not given) | -5.4 | -5.2 | / | / | / | / | / | 29.4 | 0.6 | -2.1
COc1ccc(NC(=O)c2cc(C)no2)cc1Cl | -2.3 | -3.2 | 4.1 | 4.0 | 4.8 | -2.7 | i | 9.1 | 2.1 | /
Cc1cccc(NC(=O)c2nc[nH]c2C(=O)N2CCN(c3ccccc3)CC2)c1 | -3.3 | / | -4.4 | 0.0 | -1.5 | 13.8 | i | / | / | -1.1
COC(CNC(=O)c1cc(Sc2nnc(C)s2)nc2ccccc12)OC | 2.7 | -4.1 | / | / | / | / | / | -7.0 | 1.9 | 58.2
CCC1=C(OC(=O)N(CC)CC)N2C(=O)OC(=NCC(=O)OC)[C@]2(C)[C@H]2C1=CC[C@H]1C(=O)N(CC(=O)OC)C(=O)[C@H]12 | -3.1 | -8.0 | 0.6 | 15.0 | 12.0 | 2.1 | i | -9.5 | -3.6 | /
Cc1ccc(N2CCN(c3ccc(C)cc3)C(CC(=O)O)C2=O)cc1 (stereo not given) | / | -15.7 | / | / | / | / | / | -15.6 | 3.0 | -6.5
CCN(CC)S(=O)(=O)c1ccc(S(=O)(=O)N2CCCC2C(=O)O)cc1 (stereo not given) | 3.4 | -1.4 | 0.8 | 15.3 | 9.0 | -10.8 | i | 3.0 | 3.2 | -1.8
Fc1cc(F)c2nc(N3CCOCC3)sc2c1 | -1.7 | -9.3 | / | / | / | / | / | 4.8 | -1.3 | /
CCC(=O)Nc1sc(C(=O)OC)c(C)c1C(=O)OC | 1.8 | -1.6 | 5.4 | -2.6 | -9.6 | 1.8 | i | 16.1 | 1.0 | 6.2
CCOc1ccc(C(=O)NCC(=O)OCC(=O)N2CCC(C)CC2)cc1 | -3.4 | -8.6 | / | -6.2 | 5.4 | -5.2 | / | -0.2 | -6.4 | 0.2
Cc1ccc(S(=O)(=O)N2CCN(C(=O)c3ccccc3)C2)cc1[N+](=O)[O-] | -8.7 | 4.8 | 1.1 | 3.4 | 11.0 | 2.1 | i | -29.6 | 0.0 | -24.1
c1ccc(Cc2nnc(-c3ccccc3)o2)cc1 | -3.4 | -17.4 | / | / | / | / | / | -9.0 | ? | 1.0
O=C(OCc1ccc(Br)cc1)c1cnc(Cl)c(Cl)c1 | 4.0 | 17.1 | -2.5 | -0.1 | 0.3 | -5.3 | i | -5.4 | 1.7 | /
CC(C)Oc1ccc(Cc2c(O)nc(NCCCN(C)C)[nH]c2=O)cc1 | 0.6 | 5.0 | / | / | / | / | / | 6.5 | -0.5 | -7.9
CCCCCCCC(=O)Nc1ccc(S(=O)(=O)Nc2nccs2)cc1 | -1.6 | -7.0 | 0.6 | / | / | / | i | 15.5 | 2.3 | 10.6
O=C(Nc1ccccc1)c1ccc(-c2ccc(F)cc2)s1 | 2.1 | -10.1 | -1.7 | 14.2 | 13.0 | -0.8 | i | 1.2 | ? | -21.6
Cc1cnc(C(=O)OCC(=O)Nc2ccccc2[N+](=O)[O-])cn1 | 3.5 | / | 3.2 | 6.6 | 9.3 | 3.1 | i | / | / | -0.8

Two compounds from above, reduced to MLL AF4-AF9 inh, rRNA inh HTS and ALR H2O2 inh.
structure,MLL AF4-AF9 inh,rRNA inh HTS,ALR H2O2 inh
Cc1ccccc1-n1c(=O)cc(N2CCN(C(=O)c3ccco3)CC2)[nH]c1=O,-19.0,12.6,-29.3
CCN(CC)S(=O)(=O)c1ccc(S(=O)(=O)N2CCCC2C(=O)O)cc1 (stereo not given),0.8,15.3,-1.8

Some values from above.
Result for `Cc1cnc(C(=O)OCC(=O)Nc2ccccc2[N+](=O)[O-])cn1` in rRNA inh HTS: 6.6
Result for `O=C(OCc1ccc(Br)cc1)c1cnc(Cl)c(Cl)c1` in Calb FLC: -5.4
Result for `Cc1cc(CNC(=O)COC(=O)c2ccc(Cl)c(N)c2)cc(C)c1O` in rRNA inh HTS OD600: 2.9
Result for `CCN(CC)CCOc1ccc2c(c1)C(=NO)c1cc(OCCN(CC)CC)ccc1-2` in ALR H2O2 inh: -2.0
